# CSC inhib = cancer stem cell inhibition | cancer stem cell-like cells viability, luminescence | inhibition, % at 7.5 µM | 300,000 compounds, 1.1% hits | AID 2717;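 active means mean at 75% or more and at least half the replicates too; inconclusive means mean and replicates disagree; tested in HMLE shEcad cells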;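 further: 0% = median of negative and 100% = median of positive control wells; the first replicate is given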
# eIF4H FP inh = inhibitors of RNA binding by human eIF4H; inhibition, % at 35 µM; eIF4H fluorescence polarization binding assay; 290,000 compounds, 0.94% hits; Q15056; AID 2012;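 active means 50% or more with normal probe brightness, or confirmed in later tests; inconclusive means above 50% with abnormal brightness, or retests that disagree; inactive means below 50% or failed in later tests; about a fifth of its hits are not listed in these tables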;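 further: calls also rest on retests at 20 µM and on dose response follow-up; 0% = protein and probe with vehicle and 100% = probe without protein; strong numbers were not always called active; many hits fall short of the cut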
# PABP polyA inh = PABP-poly(A) binding inhibition; PABP-poly(A) RNA binding, fluorescence polarization; P11940; inhibition, % at 35 µM; AID 2014; 290,000 compounds, 1% hits;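 active means 50% or more with normal probe brightness, or confirmed in later tests; inconclusive means above 50% with abnormal brightness, or retests that disagree; inactive means below 50% or failed in later tests; about a fifth of its hits are not listed in these tables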;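 further: calls also rest on retests at 20 µM and on dose response follow-up; controls were probe without protein and protein plus probe with vehicle; some compounds called inactive have numbers as strong as hits; many hits fall short of the cut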
# MT1-MMP act inh = MT1-MMP (human) activation inhibition; HT1080 RFP-PRO-GFP cells, GFP/RFP ratio fluorescence, overnight; percent of plate control window, DMSO zero; AID 651647; GFP/RFP ratio change, % at 20 µM; P50281; 360,000 compounds, 0.061% hits;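 active means GFP/RFP ratio change of at least 30% with cell ATP level not reduced by more than half and red fluorescence within 50% of control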; further: strong numbers were not always called active
#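 Assay system: HT1080 RFP-PRO-GFP cells. Benchmarks: DMSO vehicle wells and RFP-L50D-GFP reporter cell wells. Times: overnight cell settling, then overnight compound exposure, 37 °C, 5% CO2. Compound: 20 µM single dose, 1% DMSO. Read-out basis: GFP/RFP fluorescence ratio.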
# Env fusion inh = inhibitors of HIV Env-mediated cell fusion. HeLa-JRFL Env/CEM21 cell fusion, luciferase. 360,000 compounds, 1.1% hits. inhibition, % at 12.3 µM;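 active means mean replicate inhibition score of at least 50 and every replicate individually at or above 50; inconclusive means only one of the two criteria met; inactive means mean below 50 and not all replicates reaching 50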;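 further: 0% = plate neutral controls and 100% = maraviroc near 300 nM; one replicate is shown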
# Rce1 inh = inhibitors of yeast Ras-converting enzyme. yeast membranes, quenched prenylated peptide cleavage fluorescence. calls only. Q03530. 290,000 compounds, 0.27% hits;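 active means fall in fluorescence gain of 50% or more versus controls, with final raw signal at or below 3038400; inconclusive means same 50% fall but final raw signal above 3038400; inactive means fall in fluorescence gain under 50%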;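 further: plate controls were neutral control wells for no effect and wells lacking membranes for full effect; tested at 10 µM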
# Target sequence (Q03530 whole entry, looked up): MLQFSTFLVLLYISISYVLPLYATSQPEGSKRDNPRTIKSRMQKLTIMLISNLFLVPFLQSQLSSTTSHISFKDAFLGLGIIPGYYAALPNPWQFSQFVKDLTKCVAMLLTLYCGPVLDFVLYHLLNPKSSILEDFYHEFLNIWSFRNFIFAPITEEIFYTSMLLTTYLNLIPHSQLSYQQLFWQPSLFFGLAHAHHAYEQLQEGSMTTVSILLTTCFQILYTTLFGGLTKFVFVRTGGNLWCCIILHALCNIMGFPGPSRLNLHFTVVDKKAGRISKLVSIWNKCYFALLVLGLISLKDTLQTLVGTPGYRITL
# Yeast UUG start = modulators of start codon recognition fidelity in yeast | AID 602363 | 350,000 compounds, 0.13% hits | S. cerevisiae UUG-firefly luciferase reporter, luminescence/redox ratio | activity score, % at 18.7 µM;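 active means replicate mean at a twofold rise or more, about +100% in these data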;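 further: firefly luciferase made from a UUG start codon reports start codon fidelity; reporter light over untreated wells divided by growth signal over untreated wells; some hits fall short of that in this replicate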
# eIF4H FP inh retest = further read-out of eIF4H FP inh, marked with its call; inhibition, %; compound at 20 µM; confirmation average;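 mean of two retest wells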
# PABP polyA inh retest = further read-out of PABP polyA inh, marked with its call; inhibition, %; compound at 20 µM; confirmation repeats;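 mean of two retest wells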
# MT1-MMP act inh RFP = further read-out of MT1-MMP act inh, marked with its call; RFP signal change, %; measured here: RFP expression control read;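 0 = vehicle wells; hits needed this value within 50% of zero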
# * marks the source's active call; other numbers are inactive results; i = inactive; ? = inconclusive; . = not tested or not shown.
SMILES,CSC inhib,eIF4H FP inh,PABP polyA inh,MT1-MMP act inh,MT1-MMP act inh RFP,Env fusion inh,Rce1 inh,Yeast UUG start,others
O=C(NCC1CC1)C1Cc2c(-c3cccc(F)c3)ccnc2O1 (stereo not given),.,.,.,1,1,5,.,-8,
Fc1ccc(NC(=S)NCCc2ccccc2)c(F)c1F,14,4,-7,0,-13,.,i,.,
Cc1ccc2cc3cc(C(=O)NC4CCCCC4)oc3nc2c1,-11,-2,-8,-3,-2,-87,i,8,
CC(C)c1ccc(NC2CCCN(C(=O)c3cccnc3)C2)cc1 (stereo not given),-6,2,1,4,-1,16,i,-10,
N#CCC(CNc1ncc(C(F)(F)F)cc1Cl)OC(=O)c1ccc(Cl)cc1Cl (stereo not given),1,8,-11,3,1,.,i,.,
CC(C)COc1nc2c(c(=O)n(C)c(=O)n2C)n1C,-5,-4,3,-1,0,-3,i,-9,
O=C(/C=C/c1ccc2c(c1)OCO2)Nc1nc2ccc(F)cc2s1,43,-9,7,-5,2,-33,i,.,
OCCC1CN(Cc2cccc3nccnc23)CCN1Cc1ccc(F)cc1 (stereo not given),5,-1,-10,-3,0,5,i,.,
CC(C)CCNC(=O)C1CCN(S(=O)(=O)c2ccc3c(c2)CCC(=O)N3)CC1,-8,4,10,-1,4,-35,i,-13,
CC(Sc1ccc(Cl)cc1)C(=O)N(C)CC(=O)Nc1ccc(N2CCOCC2)cc1 (stereo not given),-2,.,.,1,-3,16,i,.,
CCOc1cc(S(=O)(=O)N2CCC(Cc3ccccc3)CC2)c(OCC)cc1-n1cnnn1,17,8,11,1,-7,43,i,-11,
CCCCCCCC(=O)NN1CCOCC1,-6,-1,4,2,5,.,i,3,
Cc1[nH]n(C(N)=S)c(=O)c1N=Nc1cccc([N+](=O)[O-])c1C,6,-3,-4,3,-5,.,i,-13,
Cc1nc(C(=O)Nc2cc(F)cc(Cl)c2)sc1C1(C)CC(c2ccccc2)=NO1 (stereo not given),12,.,.,-6,-20,29,i,-12,
O=C(Nc1ccc(F)cc1)Nc1ccc([N+](=O)[O-])cn1,-1,3.0*,75*,-2,-1,-16,i,.,eIF4H FP inh retest=82*;PABP polyA inh retest=83*
COc1ccc(C2c3cc(OC)c(OC)cc3CCN2C2CC(=O)N(c3ccccc3)C2=O)cc1OC (stereo not given),.,-7,-10,0,0,8,i,-5,
O=C(NCCCN1CCOCC1)c1cccnc1SCc1ccccc1Cl,.,-3,-6,4,5,1,i,-22,
C=CCn1c(C)cc(C2=NNC(=Nc3ccc(C)cc3)SC2)c1C,-4,3,2,1,0,8,i,.,
Cc1nccn1-c1c2c(c(C#N)c3nc4ccccc4n13)CCCC2,.,.,.,-1,2,3,.,-18,
CCCCn1nnc(NC(=S)NC(=O)c2cccs2)n1,-14,0,-12,-13,-5,2,i,-11,
CCCCNc1c(-c2cccc(-c3cc(C(C)=O)cs3)c2)nc2cc(C)ccn12,24,.,.,6,-2,-5,i,5,
NC(=O)C1CCN(S(=O)(=O)c2cc3c4c(c2)CCN4C(=O)CC3)CC1,-6,.,.,1,1,-5,i,-8,
CCOC(=O)C1C(c2cccnc2)NC(=O)NC1(O)C(F)(F)F (stereo not given),-1,-9,48,7,4,1,i,.,
CCOC(=O)Cc1nnc(NC(=O)CSc2nnc3c4ccccc4n(C(C)C)c3n2)s1,-2,0,19,-5,0,.,i,.,
CCOc1ccc(C(=O)CC(C(=O)O)N2CCN(Cc3ccccc3)CC2)cc1 (stereo not given),4,.,.,-5,5,.,.,-11,
O=[N+]([O-])c1cccc(S(=O)(=O)NCCCn2ccnc2)c1,5,-18,-10,1,4,5,i,-17,
Cc1cc2ncn(/N=C/c3ccc(-c4ccccc4)o3)c2cc1C,14,2,7,-4,-4,-1,i,-22,
Cc1cc(-c2nnc(-c3ccccc3)c(-c3ccccc3)n2)c(C)o1,-13,3,1,-17,-1,37,i,-12,
O=C(COC(=O)CC1CCCC1)Nc1ccc(OC(F)F)cc1,-8,-5,5,3,4,15,i,2,
NC1=NC(c2ccccc2Cl)n2c(nc3ccccc32)N1 (stereo not given),-10,6,4,-9,-5,.,i,-8,

# As a short view, two of the compounds above.
SMILES,CSC inhib,eIF4H FP inh,PABP polyA inh,MT1-MMP act inh,MT1-MMP act inh RFP,Env fusion inh,Rce1 inh,Yeast UUG start,others
O=C(Nc1ccc(F)cc1)Nc1ccc([N+](=O)[O-])cn1,-1,3.0*,75*,-2,-1,-16,i,.,eIF4H FP inh retest=82*;PABP polyA inh retest=83*
COc1ccc(C2c3cc(OC)c(OC)cc3CCN2C2CC(=O)N(c3ccccc3)C2=O)cc1OC (stereo not given),.,-7,-10,0,0,8,i,-5,

# (continued)
SMILES,CSC inhib,eIF4H FP inh,PABP polyA inh,MT1-MMP act inh,MT1-MMP act inh RFP,Env fusion inh,Rce1 inh,Yeast UUG start,others
OCCn1nc2c3ccccc3nc-2n(-c2ccccc2)c1=S,-14,-5,0,1,-2,.,i,-17,
O=C1c2ccccc2C(=O)N1CCCCSc1nc2ccccc2c(=O)n1CCCN1CCOCC1,-12,-4,16,-4,-1,23,i,.,
Cc1ccc(/C=N/NC(=O)c2cccc(S(=O)(=O)Nc3cccc(Cl)c3)c2)o1,-10,15,-2,2,7,9,i,.,
CCC(OC(=O)c1cccs1)C(=O)NCc1ccco1 (stereo not given),-8,-7,9,3,4,-20,i,-12,
CSCCC(NS(=O)(=O)c1ccc(Cl)cc1)C(=O)OCc1cccc(Cl)c1 (stereo not given),14,-4,-5,-1,-7,35,i,-8,
O=C(C1CC(=O)N(c2ccc(F)cc2)C1)N1CCCCCC1 (stereo not given),-12,0,0,-1,-3,-1,i,4,
CC1(C(=O)NS(=O)(=O)c2ccc(F)cc2F)CCN1C(=O)Cc1ccc(-c2ccccc2)cc1 (stereo not given),.,.,.,3,4,-7,.,4,
COCCSc1nnc(NC(=O)c2ccc(OC)c([N+](=O)[O-])c2)s1,4,7,11,3,2,1,i,.,
CC1CCCC(NC(=O)COC(=O)c2ccc(Br)o2)C1C (stereo not given),-3,.,.,0,4,.,.,-16,
Cc1ccc(NC(=O)C(C)SCc2ccccc2)cc1 (stereo not given),-3,-2,-11,8,-2,-10,i,-9,
Cc1cc(C(=O)OCC(=O)N(C)c2ccccc2)c2ccccc2n1,3,.,.,-2,0,8,.,-4,
CCn1c(O)c(/C=N/NC(=O)c2ccncc2)c(=O)n(CC)c1=S,.,?,8,12,17,4,i,.,
CCOC(=O)CNC(=O)OC1CCN2Cc3ccccc3N=C12 (stereo not given),-12,-12,6,1,0,-6,i,-13,
O=C(CCC(=O)NCCO)NCCO,-16,3,-11,1,7,-8,i,1,
O=C(CN1C(=O)c2cccc3cccc1c23)Nc1ccccc1C(=O)NCc1ccco1,-4,.,.,-12,-7,?,i,1,

# Arranged by heavy-atom count (lowest first): part of the list above.
SMILES,CSC inhib,eIF4H FP inh,PABP polyA inh,MT1-MMP act inh,MT1-MMP act inh RFP,Env fusion inh,Rce1 inh,Yeast UUG start,others
CC(C)COc1nc2c(c(=O)n(C)c(=O)n2C)n1C,-5,-4,3,-1,0,-3,i,-9,
CCC(OC(=O)c1cccs1)C(=O)NCc1ccco1 (stereo not given),-8,-7,9,3,4,-20,i,-12,
CC1CCCC(NC(=O)COC(=O)c2ccc(Br)o2)C1C (stereo not given),-3,.,.,0,4,.,.,-16,
OCCn1nc2c3ccccc3nc-2n(-c2ccccc2)c1=S,-14,-5,0,1,-2,.,i,-17,
Cc1cc2ncn(/N=C/c3ccc(-c4ccccc4)o3)c2cc1C,14,2,7,-4,-4,-1,i,-22,
NC(=O)C1CCN(S(=O)(=O)c2cc3c4c(c2)CCN4C(=O)CC3)CC1,-6,.,.,1,1,-5,i,-8,
O=C(NCCCN1CCOCC1)c1cccnc1SCc1ccccc1Cl,.,-3,-6,4,5,1,i,-22,
N#CCC(CNc1ncc(C(F)(F)F)cc1Cl)OC(=O)c1ccc(Cl)cc1Cl (stereo not given),1,8,-11,3,1,.,i,.,
CCCCNc1c(-c2cccc(-c3cc(C(C)=O)cs3)c2)nc2cc(C)ccn12,24,.,.,6,-2,-5,i,5,
O=C(CN1C(=O)c2cccc3cccc1c23)Nc1ccccc1C(=O)NCc1ccco1,-4,.,.,-12,-7,?,i,1,
CCOc1cc(S(=O)(=O)N2CCC(Cc3ccccc3)CC2)c(OCC)cc1-n1cnnn1,17,8,11,1,-7,43,i,-11,
CC1(C(=O)NS(=O)(=O)c2ccc(F)cc2F)CCN1C(=O)Cc1ccc(-c2ccccc2)cc1 (stereo not given),.,.,.,3,4,-7,.,4,
COc1ccc(C2c3cc(OC)c(OC)cc3CCN2C2CC(=O)N(c3ccccc3)C2=O)cc1OC (stereo not given),.,-7,-10,0,0,8,i,-5,

# The list continues:
SMILES,CSC inhib,eIF4H FP inh,PABP polyA inh,MT1-MMP act inh,MT1-MMP act inh RFP,Env fusion inh,Rce1 inh,Yeast UUG start,others
CC(C)COc1cccc(C(=O)Nc2cc(S(=O)(=O)N3CCOCC3)ccc2N2CCCC2)c1,.,.,.,-2,-2,12,.,-3,
CCOc1cc(S(=O)(=O)NCCCN2CCOCC2)ccc1F,-8,12,-2,-1,1,-14,i,-3,
Cc1nnc2sc(-c3cccc4ccccc34)nn12,-12,5,-10,-2,-3,?,i,-22,
CCOc1cc(/C=N/NC(=O)c2ccncc2)ccc1OS(C)(=O)=O,-6,2,10,0,0,-17,i,-9,
COCCOC(=O)C1=C(C)NC(=O)NC1c1c(F)cccc1Cl (stereo not given),-2,0,-5,7,6,.,i,.,
COC(=O)C1=C(C)N(c2ccc(Cl)cc2)/C(=C/c2cccs2)C1=O,32,45,-6,-3,2,-10,i,.,
CCN(CC)CCNC(=O)c1cc2c(-c3ccc(Cl)cc3)nn(C)c2s1,.,2,5,-1,-1,-354,i,11,
CC(OC(=O)C1=Cc2ccccc2OC1)C(=O)NCC1CCCO1 (stereo not given),.,.,.,3,1,-1,.,24,
CSc1nnc(-c2ccc(Cl)cc2Cl)o1,-7,10,6,6,7,.,i,-9,
COc1cccc(CNCC(=O)Nc2ccc(N3CCOCC3)cc2)c1,-4,-2,-4,1,4,3,i,.,
C=CCOc1ccc(CNc2nccs2)cc1OC,1,-3,-16,-1,3,.,i,-22,
CCS(=O)c1ccccc1C(=O)OCC(=O)Nc1ccc2ccccc2c1 (stereo not given),-4,.,.,-2,-22,.,.,-4,
O=C(N[C@@H](Cc1ccccc1)C(=O)NCc1ccc(F)cc1)C1CCNCC1,-2,-14,8,1,1,-4,i,-17,
CCCCNC(=O)CCC(=O)NNc1nc2ccccc2c2nc(C)nn12,1,-10,0,10,8,.,i,.,
CC(NC(=O)Cc1ccccc1F)c1ccc(F)cc1 (stereo not given),-26,-2,-2,1,2,1,i,.,
Cc1ccc(-c2nc(Nc3ccccc3)n[nH]2)cc1,9,-15,-11,16,-5,-343,.,-19,
COc1ccc(-n2c(-c3ccccc3)nc(=S)c3c2CCCC3)cc1,-6,3,-6,3,0,.,i,-25,
O=C(Nn1cnnc1)C(c1ccccc1)c1ccccc1,4,-1,-1,5,5,.,i,-15,
COc1cccc(CNC(=O)CCC2CCCN(C(=O)c3cc(C4CC4)[nH]n3)C2)c1 (stereo not given),5,8,-4,-1,-4,-21,.,.,
COc1ccc(-c2cc(CCCC(=O)N3CCN(c4ccc(OC)cc4)CC3)no2)cc1,1,-3,0,-2,-14,-15,i,-13,

# Assay outcomes from PubChem.

# A portion of the library, so the mix of outcomes need not match the whole.
